Mtb growth – Mycobacterium tuberculosis H37Rv growth inhibition, cell based, confirmatory dose response (AID 1949) | most inactive calls were filed without a number and no value below 0 was filed | inhibition, % at 10 µg/mL, or IC50 in µg/mL where a hit was titrated | hit rate 1.6% among 100,000;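 active = confirmed in a dose series; inconclusive = about 50% or more but not retested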;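 note: bacteria grown 7 days with compound before Alamar blue readout; 0% = untreated bacteria and 100% = reference antibiotic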
Numbers without * were called inactive; i = inactive; ? = inconclusive. These rows are one share of the data; rates above refer to the full screens.

SMILES | Mtb growth
Cn1c(COc2ccccc2Cl)nnc1SCC(=O)N1CCN(c2ccccc2)CC1 | i
OCCOc1ccc(Br)cc1CO | i
COC(=O)C1=C(C)NC2=C(C(=O)CCC2)C1c1ccc(Cl)c([N+](=O)[O-])c1 (stereo not given) | i
CCCOc1ccc(-c2nnc(SCC(N)=O)n2-c2ccccc2)cc1 | 2.0%
N/C(Cc1ccc([N+](=O)[O-])cc1)=N\OC(=O)C(c1ccccc1)c1ccccc1 | 0.1%
Cc1cc2c(N3CCC(C(N)=O)CC3)ncnc2s1 | i
CCc1c(C)sc(NC(=O)Cc2ccc(Cl)cc2)c1C(N)=O | i
O=C1CC(CSc2nnnn2-c2ccccc2)=NN1c1ccccc1 | i
COC(=O)c1c(NC(=O)c2cncc(Br)c2)sc2c1CCC2 | i
COc1cccc(CSc2nsc(SCc3cccc(OC)c3)c2C#N)c1 | 2.8%
O=C(O)COc1ccc(Cl)cc1C1C2=C(CCCC2=O)NC2=C1C(=O)CCC2 | i
CC(=O)Nc1ccc(NC(=O)c2ccc(-c3ccccc3Cl)o2)cc1 | 1.2%
O=C(O)CCCCc1nc2ccccc2s1 | i
CN1C(=O)C(C2(C#N)CCCCC2)C(=O)N(C)C1=O | i
O=C(CS(=O)(=O)c1ccccc1)N1CCCCC1 | i
CCCCNCCOc1cccc(Br)c1 | i
CCc1cccc(C)c1NC(=O)CSc1nnc(CC(=O)Nc2ccc(Cl)c(Cl)c2)n1C | 4.7%
CCc1ccccc1NC(=O)CSc1nnc(-c2ccccc2)n1-c1ccc(F)cc1 | i
COC(=O)c1ccccc1NC(=O)COc1ccc(Cl)cc1Cl | i
O=C(Nc1ccc(-c2ccc(NC(=O)c3ccccc3F)cc2)cc1)c1ccccc1F | 5.4%
O=C(NC1CCCCC1)c1ccc(Cn2cc(Cl)cn2)cc1 | i
Cc1ccc(-c2nc3ccccc3s2)cc1NC(=S)NC(=O)c1ccco1 | i
O=C(NC(=S)Nc1ccc(I)cn1)c1cccs1 | i
Fc1cccc(Cl)c1COc1ccc(C(=S)N2CCOCC2)cc1 | i
Cc1ccccc1NC(=O)c1sc2nc3c(c(-c4ccco4)c2c1N)CCCC3 | i

The final 4 entries of the section above come first, to join the parts.
SMILES | Mtb growth
Cc1ccc(-c2nc3ccccc3s2)cc1NC(=S)NC(=O)c1ccco1 | i
O=C(NC(=S)Nc1ccc(I)cn1)c1cccs1 | i
Fc1cccc(Cl)c1COc1ccc(C(=S)N2CCOCC2)cc1 | i
Cc1ccccc1NC(=O)c1sc2nc3c(c(-c4ccco4)c2c1N)CCCC3 | i
O=C(Nc1ccc(S(=O)(=O)N2CCCC2)cc1)Nc1cccc(Cl)c1Cl | i
COc1cccc(CNC(=S)Nc2cc(C)cc(C)c2)c1 | ?
CCc1ccc(CCC(=O)Nc2ncc(Cc3ccc(Br)cc3)s2)o1 | i
O=C(O)c1ccc(CNS(=O)(=O)c2ccc(F)c(Cl)c2)cc1 | i
CCOc1ccc(Br)cc1S(=O)(=O)NCCOC | i
OC(COc1c(F)cc(Br)cc1F)CN1CCc2ccccc2C1 (stereo not given) | 5.1%
CCOc1cc(C=O)ccc1OCc1ccc2ccccc2c1 | 24.4%
CCc1ccccc1Nc1nc2ccccc2n1C | 33.5%
CC(C)CCNC(=O)c1cccc(F)c1 | i
COC(=O)c1cccc(NC(=O)CN2CCN(Cc3ccccc3)CC2)c1 | i
NC(=O)CS(=O)(=O)c1nc2ccccc2n1Cc1ccccc1F | 0.5%
O=C(Cc1ccccc1)Nc1cc(N2C(=O)CCC2=O)ccc1Cl | i
Cc1nc2c(cnn2-c2ccccc2)c(=O)n1-c1cccc(Cl)c1 | 2.0%
CCOc1ccc(-n2c(SCC(=O)c3cc(OC)ccc3OC)nnc2-c2cccnc2)cc1 | i
CCOC(=O)c1c(-c2ccccc2)csc1NC(=O)CCn1cnc2ccccc2c1=O | 0.2%
Cc1c(CC(=O)O)c(=O)oc2cc(OCc3ccc(Cl)cc3)ccc12 | i
O=C(COc1ccccc1Cl)Nc1ccc2c(c1)C(=O)NC2=O | i
CC1=C(C#N)C(NC(=O)c2ccc(Cl)cc2Cl)(C(F)(F)F)C(=O)N1 (stereo not given) | 0.1%
Cc1ccc(C(=O)C(C)OC(=O)c2ccc(N3C(=O)C4C5C=CC(C6CC56)C4C3=O)cc2)cc1 (stereo not given) | i
COc1ccc(CNC(=O)COc2ccc(S(=O)(=O)N3CCCCC3)cc2Cl)cc1 | i
CCNC(=O)c1ccccc1NC(=O)c1ccc(Cl)cc1Cl | 6.0%
CCOc1ccc(CN2CCN(C(=O)c3ccc(OC)cc3)CC2)cc1 | i
CS(=O)(=O)N(CC(=O)NCc1ccco1)c1cccc(F)c1 | i
CCOC(=O)c1cnc2ccc(C(=O)OC)cc2c1Nc1ccc(N2CCOCC2)cc1 | ?
COc1cccc(NC(=O)Nc2ccc(C(F)(F)F)cc2)c1 | 5.23µg/mL*

(more compounds)
SMILES | Mtb growth
CCc1ccccc1NC(=O)c1ccc(-c2csc(C)n2)cc1 | i
COc1ccc(OC)c(S(=O)(=O)Nc2ccc(F)cc2F)c1 | i
O=C(CN1C(=O)C2C3CCC(C3)C2C1=O)Nc1ccccc1C(F)(F)F (stereo not given) | i
O=C(CCN1C(=O)/C(=C/c2ccccc2Cl)SC1=S)Nc1ccc(F)cc1 | i
Cc1ccc(C)c(N=C(N)N=C(N)N)c1 | i
O=S(=O)(c1ccc(F)cc1)N1CCOCC1 | i
O=C(CN(c1ccccc1)S(=O)(=O)c1ccc(Cl)cc1)Nc1ccccc1Cl | 2.0%
Cc1ccc(S(=O)(=O)N(CC(=O)NC2CCCCCC2)c2ccc(F)cc2)cc1 | 6.9%
O=C(CNS(=O)(=O)c1ccccc1)Nc1cccc([N+](=O)[O-])c1 | i
COc1cccc(C2Nc3ccccc3NC3=C2C(=O)CC(c2ccc(C)cc2)C3)c1O (stereo not given) | 7.2%
Cc1ccc(NC(=O)CSc2ncnc3sc(-c4ccccc4)cc23)c(C)c1 | i
COc1ccc(CSc2nc(N)cc(=O)[nH]2)cc1 | 7.4%
NC(=O)COc1ccc(Cl)cc1C=O | i
O=C(O)CCNC(=O)c1cncc(Br)c1 | i
Cc1ccccc1OCCCC(=O)Nc1ccc(Cl)c(Cl)c1 | 21.8%
COc1cc(OC)c(NC(=O)CSc2nnc(NC(=O)CCc3ccccc3)s2)cc1Cl | i
CCC(Oc1ccccc1)C(=O)Nc1ccc(C)cc1Br (stereo not given) | i
CC(C)Oc1ccc(C2SCC(=O)Nc3c2c(=O)[nH]n3C2CCCC2)cc1 (stereo not given) | i
COc1ccccc1N1CCN(C(=O)C2CCN(S(=O)(=O)c3ccc(C)cc3)CC2)CC1 | 0.9%
COc1cc(/C=C2\C(=N)N3N=CSC3=NC2=O)cc(Br)c1OC(=O)c1ccco1 | 0.1%
Cc1cc(NC(=O)CSc2nc(=O)cc(N)n2-c2ccccc2)no1 | i
O=C(c1cc2nc3c(c(C(F)(F)F)n2n1)CCc1ccccc1-3)N1CCN(c2ccc(F)cc2)CC1 | i
O=S(=O)(c1cccc2nsnc12)N1CCN(c2ccccn2)CC1 | 1.1%
Nc1ncnc2nc(SCCOc3ccccc3F)[nH]c12 | i
CC1=C(C(=O)OCc2ccccc2)C(c2ccccc2Cl)NC(=S)N1 (stereo not given) | i

Of the compounds above, these have a furan ring, fused or not:
SMILES | Mtb growth
CC(=O)Nc1ccc(NC(=O)c2ccc(-c3ccccc3Cl)o2)cc1 | 1.2%
Cc1ccc(-c2nc3ccccc3s2)cc1NC(=S)NC(=O)c1ccco1 | i
Cc1ccccc1NC(=O)c1sc2nc3c(c(-c4ccco4)c2c1N)CCCC3 | i
CCc1ccc(CCC(=O)Nc2ncc(Cc3ccc(Br)cc3)s2)o1 | i
CS(=O)(=O)N(CC(=O)NCc1ccco1)c1cccc(F)c1 | i
COc1cc(/C=C2\C(=N)N3N=CSC3=NC2=O)cc(Br)c1OC(=O)c1ccco1 | 0.1%

(cont.)
SMILES | Mtb growth
NC(=O)C1(N2CCCCC2)CCN(C(=O)Nc2ccccc2)CC1 | i
Clc1ccc(Cn2nnc(-c3ccccc3)n2)cc1Cl | 2.9%
S=C(NCc1ccco1)Nc1cccc(Cn2cc(Cl)cn2)c1 | i
Cc1cc(C)nc(SCc2nnc(SC/C=C/c3ccccc3)n2-c2ccccc2)n1 | i
COc1cccc(OC)c1C(=O)Nc1cc2nn(-c3ccccc3)nc2cc1C | 2.2%
O=C(COc1ccc([N+](=O)[O-])cc1)Nc1cccc(O)c1 | 8.6%
O=C(Nc1cc(C(F)(F)F)ccc1N1CCOCC1)c1cccc(F)c1 | i
O=C(c1cccs1)N1CCN(Cc2cccc([N+](=O)[O-])c2)CC1 | i
COc1ccc(S(=O)(=O)Nc2ccc(C(F)(F)F)cc2)cc1C | i
CC(C)(C)NCCCCOc1ccc(Cl)cc1 | 2.1%
CN(C)N1C(N)=C(C#N)C(c2ccsc2)C2=C1CC(C)(C)CC2=O (stereo not given) | i
COc1ccc2nc(SC3CC(=O)N(c4ccc(F)cc4)C3=O)nc(C)c2c1 (stereo not given) | 0.2%
CC(Oc1ccc(Cl)cc1Cl)C(=O)O/N=C(\N)c1ccccc1 (stereo not given) | i
O=C(Cc1ccccc1)NC(=S)Nc1cccc(NC(=O)c2cccc(Cl)c2)c1 | i
NS(=O)(=O)c1ccc(CNC(=O)NC23CC4CC(CC(C4)C2)C3)cc1 | i
CC(Oc1ccc(Br)cc1)C(=O)NC1CC(C)(C)NC(C)(C)C1 (stereo not given) | i
Cc1ncc([N+](=O)[O-])n1C(=O)c1ccccc1 | i
Cc1ccc(C(=O)NC(=S)Nc2ccc(F)cc2F)c(C)c1 | 8.2%
COc1ccc(-c2cc(C(=O)Nc3ccc(S(N)(=O)=O)cc3)c3ccccc3n2)c(OC)c1 | 0.9%
O=C(NCc1ccccn1)c1cncc(Br)c1 | i
COc1ccc(NC(=S)NCCC(c2ccccc2)c2ccccc2)c(OC)c1 | i
COc1ccccc1C(=O)Nc1cc(C(F)(F)F)ccc1N1CCOCC1 | i
O=C(CC(c1ccccc1)c1ccccc1)Nc1nnc(C(F)(F)F)s1 | i
Cc1cc(OC(C)C(=O)N2CCCCC2)cc(C)c1Cl (stereo not given) | i
COc1ccc(OC)c(N(CC(=O)NC2CC3CCC2C3)S(C)(=O)=O)c1 (stereo not given) | i

A second format for some results above:
mol	Mtb growth
COc1ccccc1C(=O)Nc1cc(C(F)(F)F)ccc1N1CCOCC1	i
Cc1cc(C)nc(SCc2nnc(SC/C=C/c3ccccc3)n2-c2ccccc2)n1	i
Cc1ccc(C(=O)NC(=S)Nc2ccc(F)cc2F)c(C)c1	8.2%
Cc1ncc([N+](=O)[O-])n1C(=O)c1ccccc1	i
CC(Oc1ccc(Br)cc1)C(=O)NC1CC(C)(C)NC(C)(C)C1 (stereo not given)	i

Further compounds.
SMILES | Mtb growth
O=S1(=O)CCCCN1S(=O)(=O)c1cccs1 | i
CC(C)NC(=S)NNC(=O)C12CC3CC(CC(C3)C1)C2 | i
O=C(NCCc1ccc(O)cc1)c1ccccn1 | i
CC1CCCC(C)N1C(=O)C1CCCCC1C(=O)O (stereo not given) | 0.8%
OCCN1CCN(C(=S)c2ccc(Br)cc2)CC1 | i
O=C(C1CCN(Cc2ccccc2F)CC1)N(CCc1ccccc1)Cc1ccccc1 | 5.6%
Cc1cc(C)nc(/N=C(/N)N2CCC(Cc3ccccc3)CC2)n1 | 1.1%
Cc1ccccc1NC(=O)C(C)(C)Oc1ccc(Cl)cc1 | i
COc1cc(OC)c(C(=O)NCc2ccc(Cl)cc2)cc1OC | 0.5%
CCOc1ccccc1Oc1coc2cc(OC)ccc2c1=O | i
CC1(C)CC(=O)c2c([nH]c3[nH]c(=O)ncc23)C1 | i
CN(C)C(=O)Oc1ccc2ccc(OC(=O)N(C)C)cc2c1 | 8.2%
CCCC(=O)Nc1ccc(Cl)c(NC(=O)C(C)(C)C)c1 | i
O=C(NCCOc1ccccc1)c1ccccc1NC(=O)C1CCCN1S(=O)(=O)c1ccccc1 (stereo not given) | i
COc1cc(C2C(C#N)=C(N)Oc3n[nH]c(-c4ccc(F)cc4)c32)ccc1OCCN1CCOCC1 (stereo not given) | 3.4%
CCc1cccc(NC(=O)c2ccc(-c3ccccc3)cc2)c1 | i
O=C(Nc1c(Cl)cccc1Cl)C1CCN(S(=O)(=O)c2ccc(F)cc2)CC1 | i
Cc1ccccc1CSc1nc2c(c(=O)n(C)c(=O)n2C)n1Cc1ccccc1F | i
COc1cc(C=O)ccc1OCC(=O)Nc1ncc(Cc2ccccc2)s1 | 4.0%
Fc1ccc(N2CCN(c3ncnc4c3cnn4-c3ccc(Cl)cc3)CC2)cc1 | 3.5%
O=C1O/C(=C(\c2ccc(Cl)cc2)[N+](=O)[O-])c2ccccc21 | 2.6%
COc1ccccc1CNC(=O)COc1c(C)cccc1C | i
CCCOc1ccc(C2C(C(=O)OC)=CN(Cc3ccc(OC)cc3)C=C2C(=O)OC)cc1OC | i
CCOc1ccc(NC(=O)c2c(NC(=O)CNCCc3ccccc3)sc3c2CCC3)cc1 | i
COc1ccc(Cl)cc1NC(=O)COc1ccccc1OC | 12.5%

Going on with the list:
SMILES | Mtb growth
Cc1ccc(C(=O)Nc2ccccc2Oc2ccccc2)cc1C | i
O=c1c2c3c(sc2ncn1-c1ccc(I)cc1)CCCCC3 | 1.1%
CCOC(=O)c1csc(-c2ccccc2F)n1 | i
COc1ccc(N2CCN(c3ncnc(N)c3[N+](=O)[O-])CC2)cc1 | i
COc1ccccc1NC(=O)C(=O)NCCc1c[nH]c2ccccc12 | 1.4%
CN(CC(=O)NCc1cccnc1)S(=O)(=O)c1ccc(Cl)cc1 | 2.8%
Cc1ccc(C(C)(C)C)c(OCCCCN2CCCC2)c1 | 23.3%
Cc1cccc(NS(=O)(=O)c2ccc(S(N)(=O)=O)cc2)c1C | i
N#C/C(=C/c1ccc(O)cc1)c1nc(-c2cc3ccccc3c(=O)o2)cs1 | 0.2%
COc1ccc(-c2cccc(C(=O)Nc3cccc(C(=O)O)c3)c2)cc1 | 7.9%
COc1ccc2cc(S(=O)(=O)Nc3cccnc3)ccc2c1 | 1.8%
CSc1ccc(Cl)c(C(=O)Nc2ccc(C(F)(F)F)cc2Cl)c1 | i
Cc1ccc(C(=O)COc2ccc(NC(=O)c3ccccc3)cc2)cc1C | i
CC(C)CNC(=O)c1cccc(Cl)c1 | i

Compound activity deposited in PubChem BioAssay by Southern Research Institute.
